Screening results: PubChem BioAssay, Johns Hopkins Ion Channel Center
KCNQ2 pot: potentiators of rat KCNQ2 potassium channel. CHO-K1 KCNQ2, FluxOR thallium flux fluorescence; active compounds read high. B-score at 10 µM. 310,000 tested, 0.54% active. O88943;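 active means fluorescence ratio B-score at least 3 SD of library B-scores, with initial fluorescence B-score within 3 SD, cut at about 5.3 in these data; same plate scores as AID 2156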;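 further: B-score of peak minus minimum over baseline fluorescence ratio after K+ and Tl+ stimulus; positive B-score means potentiation of KCNQ2 with more thallium influx and brighter signal; only the inactives scoring about 0 or higher are listed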
Target sequence (O88943 whole entry, looked up): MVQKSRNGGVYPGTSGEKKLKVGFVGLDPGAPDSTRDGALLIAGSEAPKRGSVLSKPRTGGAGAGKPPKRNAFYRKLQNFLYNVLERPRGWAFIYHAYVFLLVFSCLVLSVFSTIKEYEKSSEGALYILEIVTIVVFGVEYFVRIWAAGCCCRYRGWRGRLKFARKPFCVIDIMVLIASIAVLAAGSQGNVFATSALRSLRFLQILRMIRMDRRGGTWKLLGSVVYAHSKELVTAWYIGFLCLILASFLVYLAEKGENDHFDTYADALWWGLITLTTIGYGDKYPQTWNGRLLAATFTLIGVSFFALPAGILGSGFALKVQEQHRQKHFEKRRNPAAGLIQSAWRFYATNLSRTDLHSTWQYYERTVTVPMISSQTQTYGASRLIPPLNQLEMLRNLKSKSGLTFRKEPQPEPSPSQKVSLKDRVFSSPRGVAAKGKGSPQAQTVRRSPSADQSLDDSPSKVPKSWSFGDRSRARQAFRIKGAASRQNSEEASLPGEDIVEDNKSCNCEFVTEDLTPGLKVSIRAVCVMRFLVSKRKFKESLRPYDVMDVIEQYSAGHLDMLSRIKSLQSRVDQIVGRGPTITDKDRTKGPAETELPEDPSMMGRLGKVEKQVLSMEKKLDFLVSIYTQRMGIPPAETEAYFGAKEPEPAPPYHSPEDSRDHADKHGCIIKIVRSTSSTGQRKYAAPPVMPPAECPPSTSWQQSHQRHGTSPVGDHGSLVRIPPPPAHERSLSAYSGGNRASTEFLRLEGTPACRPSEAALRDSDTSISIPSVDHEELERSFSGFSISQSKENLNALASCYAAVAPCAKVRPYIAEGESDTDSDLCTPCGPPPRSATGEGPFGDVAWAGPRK
KCNQ2 pot baseline: recorded beside KCNQ2 pot, whose call it bears; B-score; compound at 10 µM; measured here: initial fluorescence intensity artifact check;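 brightness before thallium and not channel activity; 0 = typical well and far values either way flag optical interference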
* = called active by the depositor; · = no result given. Some of the compounds tested. The share of hits here may be higher or lower than overall.

SMILES | KCNQ2 pot | KCNQ2 pot baseline
CCOC(=O)c1ccc(NC2OC(=O)c3ccccc32)cc1 (stereo not given) | 0.27 | 1.88
Cc1oc2cc3oc(=O)c(CCC(=O)N(C)CC(=O)O)c(C)c3cc2c1C | 0.94 | 0.87
OCC12COC(c3ccccc3)N1C(c1ccccc1)OC2 (stereo not given) | 0.01 | 0.23
O=C(Nc1ccccn1)c1ccc([N+](=O)[O-])o1 | 0.61 | -0.35
COc1ccc(OC)c(-n2c(=O)c3ccccc3c3ccccc3c2=O)c1 | 0.05 | 0.17
COc1ccc2ccccc2c1-c1csc(N)n1 | 0.77 | 0.16
O=C(Cc1sc(-c2ccccc2Cl)nc1-c1ccccc1)Nc1ccc(F)cc1 | 1.24 | -0.5
O=C(CCC(=O)OCc1ccc(C(=O)Oc2ccc(Cl)cc2)cc1)Nc1ccccc1 | 0.14 | -0.69
COc1ccc(CCNC(=O)C2CCCN(S(=O)(=O)c3cc(C)ccc3OC)C2)cc1OC (stereo not given) | 2.16 | -1.41
O=C(O)c1ccc(/C=C2\CCCc3c2nc2ccccc2c3C(=O)O)cc1 | 1.38 | -0.01
CC(C)Cn1c(N)c(C(=O)COC(=O)/C=C/c2ccccc2)c(=O)n(C)c1=O | 1.04 | 1.08
COc1ccccc1C(=O)C1CCCN(C(=O)c2cc(C(C)C)no2)C1 (stereo not given) | 0.11 | 0.06
CCCC(O)(c1ccc(Br)cc1)C(CN1CCOCC1)c1ccc(Cl)cc1 (stereo not given) | 2.08 | 1.28
CC(=O)NC(CC(=O)NC1CCCCCC1)c1ccccc1 (stereo not given) | 1.35 | 0.97
CCCCCCc1c(O)nc(SCCN2CCOCC2)[nH]c1=O | 0.67 | 0.27
CC/C(O)=C1\C(=O)CCCC1=NCCc1c(C)[nH]c2ccc(C)cc12 | 0.6 | -1.04
Cc1ccc2cc(CN(CC3CCCO3)S(=O)(=O)c3ccc4c(c3)OCCO4)c(=O)[nH]c2c1C (stereo not given) | 2.08 | -0.5
CCC(C)Sc1nnc(Cc2cc(=O)[nH]c(=O)[nH]2)n1-c1ccc(F)cc1 (stereo not given) | 0.63 | -0.12
COc1ccc(C(=O)Nc2nc3ccc(S(C)(=O)=O)cc3s2)cc1 | 0.05 | -0.76
CCOC(=O)c1ccc(N=Cc2c(O)c3ccccc3oc2=O)cc1 | 0.48 | -1.2
CCCN(CCC)CCCNS(=O)(=O)c1ccc2c(c1)oc(=O)n2C | 1.9 | -0.57
CCOc1ccc(S(=O)(=O)Nc2ccccn2)c2ccccc12 | 0.14 | -1.39
CCOC(=O)c1cc2c(ccn2C)n1CC(=O)N1CCC(Cc2ccccc2)CC1 | 2.57 | 0.52
Cc1cc(NC(=O)C2CCCCC2C(=O)O)ccc1NC(=O)c1ccccc1 (stereo not given) | 0.6 | -1.07
Nc1c(-c2ccccc2)c(CSc2nc3ccccc3[nH]2)nn1-c1cccc(Cl)c1 | -5.6 | ·

5 of these compounds, reformatted.
| KCNQ2 pot | KCNQ2 pot baseline | SMILES |
| --- | --- | --- |
| 0.27 | 1.88 | CCOC(=O)c1ccc(NC2OC(=O)c3ccccc32)cc1 (stereo not given) |
| 0.94 | 0.87 | Cc1oc2cc3oc(=O)c(CCC(=O)N(C)CC(=O)O)c(C)c3cc2c1C |
| 0.01 | 0.23 | OCC12COC(c3ccccc3)N1C(c1ccccc1)OC2 (stereo not given) |
| 0.61 | -0.35 | O=C(Nc1ccccn1)c1ccc([N+](=O)[O-])o1 |
| 0.05 | 0.17 | COc1ccc(OC)c(-n2c(=O)c3ccccc3c3ccccc3c2=O)c1 |

Ordered by length of the SMILES (lowest first): some entries from above.
SMILES | KCNQ2 pot | KCNQ2 pot baseline
COc1ccc2ccccc2c1-c1csc(N)n1 | 0.77 | 0.16
O=C(Nc1ccccn1)c1ccc([N+](=O)[O-])o1 | 0.61 | -0.35
CCOc1ccc(S(=O)(=O)Nc2ccccn2)c2ccccc12 | 0.14 | -1.39
CCOC(=O)c1ccc(N=Cc2c(O)c3ccccc3oc2=O)cc1 | 0.48 | -1.2
CCCC(O)(c1ccc(Br)cc1)C(CN1CCOCC1)c1ccc(Cl)cc1 (stereo not given) | 2.08 | 1.28
CC/C(O)=C1\C(=O)CCCC1=NCCc1c(C)[nH]c2ccc(C)cc12 | 0.6 | -1.04
CCC(C)Sc1nnc(Cc2cc(=O)[nH]c(=O)[nH]2)n1-c1ccc(F)cc1 (stereo not given) | 0.63 | -0.12

Next compounds.
SMILES | KCNQ2 pot | KCNQ2 pot baseline
O=C(NCc1ccc(N2CCCC2=O)cc1)NC1CCCCC1 | 1.66 | -0.05
COc1ccc(S(=O)(=O)NNC(=O)Nc2ccc(F)cc2)cc1 | 0.79 | 0.29
CCOC(=O)N1CCC(Nc2c(NCCCOC)c(=O)c2=O)CC1 | 0.81 | -2.05
Cc1ccc(-c2nnc(SCC(=O)NC3CCS(=O)(=O)C3)nc2-c2ccc(C)cc2)cc1 (stereo not given) | 1.18 | -0.95
CCc1ccc(NC(=O)C(=O)NNC(=O)c2ccc(OC)cc2)cc1 | 24.5* | 0*
Cc1nnc(NC(=O)Cn2cnc3c2c(=O)n(C)c(=O)n3C)s1 | 2.01 | 0.97
O=C(COc1ccc2ccccc2c1)N1CCNCC1 | 0.42 | -0.26
CCCc1cc2c(cc1NC(=O)c1ccc(C)cc1)OCO2 | 0.62 | -0.02
CCOC(=O)c1sc(SC)c2c1CCC/C2=N/OC | 0.11 | -0.44
CCOc1ccc(-c2nnc(-c3cccs3)o2)cc1 | 2.59 | 0.34
CCOc1ccc(-c2nc(N)ncc2-c2ccc(Cl)cc2)c(O)c1 | 0.11 | -0.2
O=C1C2CCCN2C(c2ccc(F)cc2)N1c1nccs1 (stereo not given) | 0.48 | 0.99
COc1cc(C2CC(=O)c3c([nH]c(C(=O)OCCOC(C)C)c3C)C2)cc(OC)c1OC (stereo not given) | 0.39 | -0.69
O=C(C1CCCCC1)N1CCN=C1SCc1cccc([N+](=O)[O-])c1 | 0.51 | 0.12
CS(=O)(=O)c1ccc2nc(NC(=O)c3ccccc3)sc2c1 | 0.35 | 0.07
COc1ccc(C)cc1NC(=O)C(=O)NNC(=O)COc1ccc(Cl)cc1 | 11.1* | -0.71*
Cn1ccnc1C(=O)c1ccccc1Cl | 0.5 | -0.22
CCN1CCN(c2nc3c(c(=O)[nH]c(=O)n3C)n2CCCc2ccccc2)CC1 | 0.02 | 1.3
Cc1sc(NC(=O)CN(C(=O)c2ccccc2F)C2CCCC2)c(C(N)=O)c1C | 1.36 | 0.37
CCOC(=O)c1sc(=S)n(-c2ccccc2)c1N(C(C)=O)C(C)=O | 3.65 | 1.33
COc1cc(OC)c(C(=O)OC(C)C(=O)Nc2cc(C(F)(F)F)ccc2Cl)cc1OC (stereo not given) | 0.03 | -1
Cc1ccc(OCC(=O)Nn2c(C)nc3ccccc3c2=O)c(C(C)C)c1 | 1.89 | -0.88
O=C(Nc1ccc(Cl)cc1)Nc1nnc(SCc2ccc(Cl)cc2)s1 | 1.56 | -0.48
Cc1ccc(NS(=O)(=O)c2cccc3cccnc23)c(Br)c1 | 0.37 | -0.14
O=C(Nc1nc(-c2ccccn2)cs1)c1ccc(Cl)s1 | 2.9 | -1.5

Continuation.
SMILES | KCNQ2 pot | KCNQ2 pot baseline
Cc1cccnc1NC(=O)/C=C/c1ccc2c(c1)OCO2 | 0.68 | 0.01
CCNC(=S)NN(c1ccccc1)c1ccccc1 | 0.49 | 0
Cc1cc(NC(=O)CCN2CCC(C)CC2)ccc1Br | 1.37 | 0.01
Cn1c(=O)c2c(nc(NCCCN3CCOCC3)n2Cc2ccc(Cl)cc2)n(C)c1=O | 0.11 | -0.55
Cc1nn(CCCC(=O)NCc2ccccc2)c(C)c1[N+](=O)[O-] | 1.38 | 0.53
CC(=O)Nc1sc2c(c1C(c1ccccn1)N1CCCC1)CCCC2 (stereo not given) | 1 | -1.03
Cc1cc2c(c(=O)o1)C(CCC1CCCCC1)C(C#N)=C(N)O2 (stereo not given) | 0.51 | 0.5
CN1CCC(=NNC(=O)C(=O)Nc2ccc(F)cc2)CC1 | 0.17 | 0.67
Cc1ccc2nc(-c3ccccc3)cn2c1 | 0.4 | -0.03
CCOc1ccc(NCc2nnc(SCC(=O)Nc3cc(C)on3)n2-c2ccc(OC)cc2)cc1 | 0.11 | 1.24
COC(=O)c1ccc(NC(=O)c2ccc(C)cc2)o1 | 0.76 | -0.87
O=C(CNC(=O)c1cccc(Cl)c1)N/N=C/c1cccnc1 | 0.43 | -0.34
Cc1c(NC(=S)NC(=O)c2ccco2)c(=O)n(-c2ccccc2)n1C | 0.04 | 0.1
COc1ccc(NC(=O)CCCC(=O)NCCc2ccc(OC)c(OC)c2)cc1 | 1.47 | -2.07
CC12CCC(C(=O)NNC(=O)c3ccccc3)(OC1=O)C2(C)C (stereo not given) | 0.52 | -0.38
CCOc1ccc(CNC(=O)CCS(=O)(=O)Cc2ccccc2C)cc1OC | 0.21 | 0.01
CN(C(=O)Cc1c(C(=O)O)n(C)c2ccccc12)c1cccc(C(F)(F)F)c1 | 0.2 | 0.89
O=C(CSc1nnc2c3c4c(sc3ncn12)CCCC4)NCc1ccco1 | 0.02 | -0.05
CCCCN(CC)C(=O)c1n[nH]c(=O)c2ccccc12 | 0.62 | 1.78
Cc1c(Cc2ccc3c(c2)OCO3)sc(NC(=O)C(C)(C)C)c1C#N | 0.3 | 1.71
CN(c1ccc(Cl)cc1)S(=O)(=O)c1nnc(NC(=O)C(C)(C)C)s1 | 0.57 | 0.06
CC(C)(C)c1ccc(/C=C/C(=O)N2CCN(c3ncccn3)CC2)cc1 | 0.95 | 0.79
CCCNC(=O)CS(=O)(=O)Cc1nc(-c2cccc(OC)c2)oc1C | 0.2 | -0.03
O=[N+]([O-])c1cc([N+](=O)[O-])c2nonc2c1Nc1ccc(O)cc1 | 0.4 | -1.9
O=C(Nc1cccnc1)Nc1ccccc1Cl | 0.77 | 1.57

The results go on.
SMILES | KCNQ2 pot | KCNQ2 pot baseline
COC(=O)c1ccc(Cn2nc(-c3ccccc3)ccc2=O)cc1 | 0.41 | 0.04
Clc1ccc(Cl)c(-c2nn3c(COc4ccccc4)nnc3s2)c1 | 0.21 | 1
CCN(CC)CCCN(Cc1cc2cc3c(cc2[nH]c1=O)OCO3)C(=S)Nc1ccc(OC)cc1 | 0.19 | 0.74
CC(=O)Nc1ccc(NS(=O)(=O)c2ccc(Cl)c(C(=O)O)c2)cc1 | 0.51 | -1
COc1cc(C)c(S(=O)(=O)NOCc2ccc([N+](=O)[O-])cc2)c(C)c1C | 0.57 | 0.04
O=C(N1CCOCC1)n1cnc2ccccc21 | 0.98 | -0.22
COCCNC(=O)/C(C#N)=C/c1c(N2CCCCCC2)nc2ccccn2c1=O | 1.72 | -0.1
Clc1cccc(Oc2cnns2)c1Cl | 0.23 | -2.23
C/C(=N\NC(=O)c1cccs1)c1ccc(C(=O)O)s1 | 0.04 | -1.11
COC(=O)c1ccc(C(=O)OC)c(NC(=O)Oc2ccccc2)c1 | 0.59 | 1.99
COC(=O)C1=CN(CC2CCCO2)C=C(C(=O)OC)C1c1ccsc1 (stereo not given) | 0.13 | -0.08
O=S(=O)([N-]c1nc2ccccc2nc1-[n+]1ccc(Cc2ccccc2)cc1)c1ccc(Br)s1 | 0.17 | 1.03
Cc1cc(C(=O)Cn2ncc(Cl)c(Cl)c2=O)c(C)n1CC(F)(F)F | 0.06 | -0.81
S=C(NCC(c1cccnc1)N1CCOCC1)NC1CCCCC1 (stereo not given) | 0.02 | 1.51
COc1ccc(C2CC(c3ccccc3)=NN2C(=O)CCCC(=O)O)cc1 (stereo not given) | 0.09 | -0.19
Cc1oc(-c2cccs2)nc1CSCC(=O)NC1CC1 | 1.03 | -0.55
Cc1ccc(Nc2ncnc3c2cnn3C)cc1 | 0.04 | 0.31
Cc1ccc2[nH]c(=O)c(CN(CCc3ccccc3)C(=O)N3CCOCC3)cc2c1 | 2.12 | 0.71
Cc1occc1C(=O)Nc1c(Cl)cccc1Cl | 0.47 | -1.7
CC[N+]1(CC)CC2=Cc3c(ccc4ccccc34)CC2C1 (stereo not given) | 0.44 | 0.09
Nc1nonc1-c1noc(-c2ccc(Br)o2)n1 | 1.1 | -2.33
CCc1cccc(CC)c1NC(=O)CN1C2CCCC1CC(NC(=O)Nc1cccc(OC)c1)C2 (stereo not given) | 0.97 | 0.51
Cc1cc(C(F)(F)F)nc(SCC(=O)NC2=NC(=O)C(C)S2)n1 (stereo not given) | 0.31 | 2.1
O=C(CSc1ccccc1C(=O)O)c1ccc(Cl)cc1 | 1.01 | 0.42
COc1cc(CNCc2ccccn2)ccc1OCC(=O)NC(C)(C)C | 0.21 | 0.66

The list continues.
SMILES | KCNQ2 pot | KCNQ2 pot baseline
NS(=O)(=O)c1ccc(CCNC(=O)Nc2ccc(Cl)c(Cl)c2)cc1 | 1.48 | 1.19
CCOC(=O)C1=C(C)OC(N)=C(C#N)C1c1cc(F)ccc1F (stereo not given) | 0.29 | -0.68
COc1ccc(Oc2nc(-c3ccncc3)nc3ccccc23)cc1 | 0.34 | 1.35
Cc1ccc(NC(=O)CSCC(=O)NCc2cccc(C(F)(F)F)c2)cc1 | 0.93 | -0.63
CC1CCN(C(=O)CN2C(=O)c3cccc4cccc(c34)C2=O)CC1 | 2.64 | -0.1
Cn1cc([N+](=O)[O-])c(C(=O)Nc2ccc(Br)cn2)n1 | 0.37 | -0.73
COCC(C)NC(=O)COc1nncc2ccccc12 (stereo not given) | 0.25 | 2.02
CC1CCc2c(sc(Nc3nc4c(F)cccc4s3)c2C(N)=O)C1 (stereo not given) | 0.27 | 1.24
CC(C)(C)n1nnnc1C(c1cccs1)N1CCN(Cc2ccccc2)CC1 (stereo not given) | 0.02 | 0.59
CCC(NC(=O)c1cc(COc2cc(C)c(Cl)c(C)c2)on1)c1ccncc1 (stereo not given) | 0.83 | 0
COc1cc(OC)cc(C(=O)N2CCC(C(=O)c3ccc(F)cc3)CC2)c1 | 0.38 | 0.4
